Screening results: PubChem BioAssay, National Center for Advancing Translational Sciences (NCATS)
VDR inhibitor: Inhibitors of the vitamin D receptor (VDR): qHTS; Vitamin D3 receptor (Homo sapiens), P11473; 400,000 tested, 0.93% active; AID 504847, 2011; VDR-SRC2-3 peptide fluorescence polarization, 2 h; Potency, µM, for the others: max response, negative = inhibition, usual class: inhibitors; active = well fitted inhibition curve with a large enough effect; inconclusive = small, poorly fitted or top-dose-only effect, or another doubt; inactive = no such curve, though single readings can be large or run the other way; note: series mostly up to about 120 µM
Target sequence (P11473 whole entry, looked up): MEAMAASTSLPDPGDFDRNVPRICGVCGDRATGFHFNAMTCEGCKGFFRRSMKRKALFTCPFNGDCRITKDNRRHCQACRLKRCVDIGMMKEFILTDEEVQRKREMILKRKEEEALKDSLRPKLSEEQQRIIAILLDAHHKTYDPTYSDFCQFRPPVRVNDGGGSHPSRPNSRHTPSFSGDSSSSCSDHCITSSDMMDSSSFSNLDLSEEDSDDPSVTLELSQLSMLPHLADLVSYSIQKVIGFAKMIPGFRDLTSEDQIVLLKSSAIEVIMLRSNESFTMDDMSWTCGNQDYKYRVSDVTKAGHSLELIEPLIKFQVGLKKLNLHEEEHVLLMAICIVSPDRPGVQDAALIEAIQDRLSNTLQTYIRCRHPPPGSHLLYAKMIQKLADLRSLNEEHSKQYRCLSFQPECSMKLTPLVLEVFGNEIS
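FP read-out; VDR + SRC2-3 coactivator peptide; 23 nl compound by pintool; 2 h RT incubation; reagents held at 4 deg C, protected from light.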
Starred values were filed as active, the others as inactive; ? = inconclusive; [ ] = remark or other dose. % is set by controls: 0 for no effect and ±100 for the full control effect; potency is the fitted concentration of half-maximal effect. Only part of the results is shown (hit frequency here may not be typical).

SMILES	VDR inhibitor
Cc1cc(C)n(-c2ccc(C(=O)Nc3ccc(C)c(S(=O)(=O)N4CCOCC4)c3)cc2)n1	4%
CC1(C)Cc2c(c(N3CCOCC3)nc3snc(NC(=O)c4ccccc4)c23)CO1	10%
COc1ccc(Nc2cc(C(=O)NCCCN3CCOCC3)c3ccccc3n2)c(OC)c1	-1%
CCOc1ccc(C(=S)N2CCCC2)cc1	1%
CC(C)c1ccc(C(=O)NNC(=O)C2CC=CCC2C(=O)O)cc1 (configuration not stated)	7%
COc1ccccc1NC(=O)C1CCCN1S(=O)(=O)c1ccc(Cl)cc1 (configuration not stated)	8%
Nc1ccc2c(c1)CC(=O)c1ccccc1S2	2%
NS(=O)(=O)c1cccc(NC(=O)COC(=O)Cc2ccc(S(=O)(=O)N3CCOCC3)s2)c1	3%
Cc1ccc(S(=O)(=O)NNC(=O)CC#N)cc1	0%
COc1ccc(-c2[nH]ncc2CN(C)CCc2c(C)n[nH]c2C)c(F)c1	-2%
COc1ccc(S(=O)(=O)NCc2cc(=O)n(C)c(=O)n2C)cc1C	9%
CC(Oc1ccccc1)c1ccnc2nc(/N=C/N(C)C)nn12 (configuration not stated)	-12%
O=C(Nc1ccccn1)C(F)(F)C(F)(F)C(F)(F)C(F)(F)C(=O)Nc1ccccn1	2%
CCC(=O)N1CCc2cc(S(=O)(=O)CCC(=O)NC(C)CC)ccc21 (configuration not stated)	-3%
Cc1cccc(CSc2nc3c(sc4ccccc43)c(=O)n2CCC(=O)NC(C)C)c1	13%
O=C(COC(=O)CCSc1ccc(F)cc1)NCc1ccc(F)cc1	-11%
CCCN(C(=S)Nc1ccccc1)C1CCS(=O)(=O)C1 (configuration not stated)	1%
CC(C)CCNC(=O)Cn1c(SCc2cccc(F)c2)nc2ccncc21	-11%
CC(C)NC(=O)Nc1cccc2c1O[C@H](CN(C)S(=O)(=O)c1ccccc1)[C@@H](C)CN([C@H](C)CO)C2=O	8%
c1cc2nncn2nc1N1CCCC1	-24%
O=C(O)c1cc(NCc2ccc(F)cc2)ccc1N1CCOCC1	-1%
CCc1cc2c(NC(Cc3ccccc3)C(=O)O)ncnc2s1 (configuration not stated)	10%
OCCN(CC#CC(O)(c1ccccc1)c1ccccc1)CCO	1%
C[C@@]12CCC=C[C@H]1[C@H](c1ccc(C(F)(F)F)cc1)N(Cc1ccccc1)C2=O	-4%
CC1CCCCN1S(=O)(=O)c1ccc(C(=O)N(CCCN(C)C)c2nc3ccc(Br)cc3s2)cc1 (configuration not stated)	-9%
(further entries)
SMILES	VDR inhibitor
CCC(CC)C(=O)Nc1c2cnn(-c3ccccc3)c2nc(=O)n1-c1ccccc1	-14%
CCOC(=O)N1CCC(NS(=O)(=O)c2ccc3c(c2)C(C)(C)C(=O)N3C)CC1	4%
Cc1cc2cc(CN(Cc3cccs3)Cc3nnnn3CC3CCCO3)c(=O)[nH]c2cc1C (configuration not stated)	1%
CCN1CCc2nc3sc(C(=O)Nc4cccnc4Cl)c(N)c3cc2C1	-19%
Cc1nc(NCc2ccco2)c(C#N)c2c1COC(C)(C)C2	2%
CN1CCN(S(=O)(=O)c2ccc(N(C)Cc3ccc(C(F)(F)F)cc3)c([N+](=O)[O-])c2)CC1	-10%
COc1ccc(NC(=O)CCCN2C(=O)CCn3nc(-c4cn(C)c5ccccc45)cc32)cc1	18%
Cc1nc2c(c(C)c1CCC(=O)NCc1ccccc1)c(=O)n(C)c(=O)n2C	-7%
O=S(=O)(c1ccccc1)N1CCN(CCO)CC1	13%
CC(=O)c1cccc(NC(=O)Nc2csc3c2CCCC3)c1	7%
Cc1cc2c(SCC(=O)NC3CCCC3)ncnc2s1	-3%
CC(=O)c1cccc(NC(=O)C2(c3ccccc3)CC2(Cl)Cl)c1 (configuration not stated)	14%
Cc1ccc(N(CC(=O)NC2CCCC2)C(=O)c2ccc(C)s2)cc1	0%
COC(=O)c1cc2ccccc2oc1=O	-2%
COc1cc(OC)c(NC(=O)Cn2c(=O)c(C(F)(F)F)nc3ccccc32)cc1Cl	-1%
CCn1c2ccccc2c2cc(CN3CCN(Cc4cc(OC)ccc4O)CC3)ccc21	?
O=C(c1ccc(CSc2nc3ccncc3n2Cc2cccc(F)c2)cc1)N1CCCCCC1	5%
O=C(CSc1ccc(Cl)cc1)NN=C1CCCCCC1	11%
CCC(CC)CN1CCN=C1N(C)C	9%
CC[C@@H](C)[C@H](NS(=O)(=O)c1ccc(C)cc1)C(=O)N1CCC(C(=O)NCC(=O)O)CC1	-12%
COCCn1c(C)cc(C(=O)COC(=O)c2cc3c(s2)CCC3)c1C	0%
COc1ccccc1NC(=O)CSCc1nc2ccccc2[nH]1	-25%
CCC(NC(=O)N(Cc1ccccc1)Cc1ccc2c(c1)OCO2)(C(F)(F)F)C(F)(F)F	-24%
CC(=O)c1cccc(NC(=O)CCC(=O)Oc2ccc(C)cc2)c1	-3%
CCOc1ccc(CCNC(=O)c2ccc3c(Cl)c4c(nc3c2)CCCC4)cc1	-2%

Among those listed so far, 9 have a thiophene ring, fused or not:
SMILES	VDR inhibitor
NS(=O)(=O)c1cccc(NC(=O)COC(=O)Cc2ccc(S(=O)(=O)N3CCOCC3)s2)c1	3%
Cc1cccc(CSc2nc3c(sc4ccccc43)c(=O)n2CCC(=O)NC(C)C)c1	13%
CCc1cc2c(NC(Cc3ccccc3)C(=O)O)ncnc2s1 (configuration not stated)	10%
Cc1cc2cc(CN(Cc3cccs3)Cc3nnnn3CC3CCCO3)c(=O)[nH]c2cc1C (configuration not stated)	1%
CCN1CCc2nc3sc(C(=O)Nc4cccnc4Cl)c(N)c3cc2C1	-19%
CC(=O)c1cccc(NC(=O)Nc2csc3c2CCCC3)c1	7%
Cc1cc2c(SCC(=O)NC3CCCC3)ncnc2s1	-3%
Cc1ccc(N(CC(=O)NC2CCCC2)C(=O)c2ccc(C)s2)cc1	0%
COCCn1c(C)cc(C(=O)COC(=O)c2cc3c(s2)CCC3)c1C	0%

The results go on:
SMILES	VDR inhibitor
COC(=O)Cc1ccc(NC(=S)N2CCN(C)CC2)cc1	?
COCCCNC(=O)c1ccccc1NS(=O)(=O)c1ccc(C)cc1	9%
CCc1ccc(Nc2nc3ccccc3nc2NS(=O)(=O)c2ccccc2)cc1	-9%
COc1cccc(NC(=O)C(=O)NCC(c2ccco2)N2CCc3ccccc3C2)c1 (configuration not stated)	-2%
CC(NCc1ccc(S(N)(=O)=O)cc1)C(=O)N1c2ccccc2CC1C (configuration not stated)	0%
Cc1ccnc(NS(=O)(=O)c2ccc(NC(=O)c3ccc(S(=O)(=O)N(C)C)cc3)cc2)n1	-10%
COc1ccc(Nc2nc(N3CCCC3)c3ccccc3n2)cc1	-2%
CNC(=S)N/N=C(\C)c1ccc(C(C)(C)C)cc1	2%
Cc1ccc2oc(=O)c(-c3nc(-c4cccs4)no3)cc2c1	4%
O=C(NNc1ncnc2c1cnn2-c1cccc(Cl)c1)c1ccco1	-10%
O=C(CCc1ccccc1)NC(=S)Nc1ccccc1Br	?
CCSc1cc(C)nc2ncnn12	5%
CC(C)[C@H](N)c1nnc2n1N=C(c1ccc(Cl)cc1)CS2	13%
CN(c1ccc(C(=O)COC(=O)C2CC2)cc1)S(C)(=O)=O	1%
COc1ccc(CCN2C(=O)CN(C3CCCCCC3)C(=O)C2c2ccc(OC(C)C)c(OC)c2)cc1OC (configuration not stated)	-5%
CCCC(=O)N1CCN(c2nc3ccc(F)cc3s2)CC1	8%
O=C(CN(CC1CCCO1)C(=O)CCC(=O)Nc1nccs1)NCc1ccccc1 (configuration not stated)	6%
CCOc1ccc(NC(=O)[C@@H]2CCC(=O)N2C2OC(=O)c3ccccc32)cc1 (some centres not stated)	-19%
COc1ccccc1CNc1nc2nc3c(c(=O)n2[nH]1)CCC3	-6%
O=C(/C=C/c1ccco1)NC(=S)Nc1cc(-c2nc3ccccc3s2)ccc1Cl	?
CC(C(=O)O)C(=O)O	4%
Cc1ccc(C(=O)Nc2cccc(-c3ccc(N4CCOCC4)nn3)c2)cc1[N+](=O)[O-]	6%
CC1Cc2ccccc2N1C(=O)c1cnc2ccccn2c1=O (configuration not stated)	1%
CCOc1cc(/C=N/NC(=O)c2ccc(O)cc2)ccc1Oc1nc(Cl)ncc1F	8%
CCOC(=O)c1sc2cccc(F)c2c1S(=O)(=O)N1CCN(c2cccc(Cl)c2)CC1	-1%
Later entries.
SMILES	VDR inhibitor
Cc1ccc(CN2C(=O)C3(c4ccccc42)N(c2cccc(C(F)(F)F)c2)C(=O)CS3(=O)=O)cc1 (configuration not stated)	-3%
COc1cc2nc(NCC(C)c3ccccc3)n3nc(-c4ccccc4)nc3c2cc1OC (configuration not stated)	-1%
CC(=O)NS(=O)(=O)c1ccc(NC(=O)c2ccc(Br)o2)cc1	9%
CCc1ccc(OCCCn2c(-c3ccc(Cl)cc3)nc3ccccc3c2=O)cc1	-3%
Cc1cc(C)n(S(=O)(=O)c2ccc(Cl)c(Cl)c2Cl)n1	-4%
CC1CCCCN1C(=O)Cn1c(=O)oc2ccccc21 (configuration not stated)	24%
COc1ccc(Br)cc1CNC(=O)C1CCN(C(=O)N(C)C)CC1	-17%
C=CCn1c(SCc2c(C(=O)OC)sc(N)c2C(=O)OC)nnc1-c1ccc(Br)cc1	-27%
Cc1cc(C)nc(NC2=NCCN2C(=S)Nc2c(C)cccc2C)n1	?
CN(CC(=O)Nc1cccc(F)c1)C(=O)c1sc2ccccc2c1Cl	-8%
Cc1cc(-c2n[nH]c(=S)n2/N=C/c2cccc(O)c2)n[nH]1	15%
Cc1ccc(C(=O)NCCN2CCOCC2)cc1	2%
CCNc1ncc2nc(-c3cccs3)c(=O)n(C[C@H]3CCCO3)c2n1	?
O=c1oc2c(CN3CCN(CCO)CC3)c(O)ccc2cc1-c1ccccn1	-5%
O=C(Nc1cccc(C(F)(F)F)c1)C1CCCN(S(=O)(=O)c2cnc[nH]2)C1 (configuration not stated)	-5%
CCOC(=O)C1(C)NC(c2cccc(C)c2)C2C(=O)N(c3ccccc3)C(=O)C21 (configuration not stated)	12%
CCN(C[C@H]1N[C@@](Cc2ccccc2)(C(=O)OC)[C@H]2C(=O)N(C)C(=O)[C@@H]12)C(=O)c1ccc(F)cc1	1%
Cc1cccc(C)c1OCC(=O)N(Cc1ccc(Cl)cc1)C1CCS(=O)(=O)C1 (configuration not stated)	-12%
COc1ccc(NC(=O)COC(=O)c2ccc([N+](=O)[O-])o2)cc1Cl	-7%
COc1ccc(/C=N/NC(=O)c2ccc(=O)[nH]n2)cc1OC	2%
COc1ccc(Cc2nnc(NC(=O)Nc3ccc(C)cc3)s2)cc1OC	-30%
CN(C)/C=C/C(=O)c1ccc(Oc2ccccc2)cc1	3%
Cc1cc(Cl)ccc1OCc1cc(=O)n2c3c(sc2n1)CCCC3	4%
Cc1cc(C(=O)Nc2ccc(S(=O)(=O)N3CCOCC3)cc2)ccc1[N+](=O)[O-]	-24%
O=C(NCC1CC1)c1cc(-c2ccccc2)nn1CC1CC(c2cccnc2)=NO1 (configuration not stated)	-17%

Grouped by structure: those above with a cyano group (2)
SMILES	VDR inhibitor
Cc1ccc(S(=O)(=O)NNC(=O)CC#N)cc1	0%
Cc1nc(NCc2ccco2)c(C#N)c2c1COC(C)(C)C2	2%

(further entries)
SMILES	VDR inhibitor
c1ccc(-c2nnc(SCC3CCCO3)nc2-c2ccccc2)cc1 (configuration not stated)	-4%
COc1cc(/C=N/NC(=O)c2ccc3c(c2)OCCO3)cc(Cl)c1O	-5%
COC(=O)c1ccccc1NC(=O)CSc1ncn[nH]1	6%
C/C(=C\C(=O)c1ccc(Cl)cc1)NCc1ccc2c(c1)OCO2	4%
CCOc1ccccc1NC(=O)c1ccc(S(=O)(=O)N(C)C)cc1	-1%
O=S(=O)(c1c(Cl)cc(Br)cc1Cl)N1CCN(C(=S)NC2CC2)CC1	44%[activator]
Cc1ccc(CNC(=O)c2ccc(N3CCC4(CC3)CC(c3cccc(Br)c3)=NO4)c([N+](=O)[O-])c2)cc1	-13%
N/C(Cc1ccc([N+](=O)[O-])cc1)=N\OC(=O)c1ccccc1F	-8%
COc1cc(NC(=O)CN2CCN(Cc3ccc4c(c3)OCO4)CC2)cc(OC)c1	-13%
COc1ccc(CCNC(=O)c2ccc(Cl)cc2)cc1OC	2%
Cc1c(C)n(C)c2ccc(C(=O)NCc3cccc(F)c3)cc12	0%
CCc1cc(C(=O)Nc2nc(-c3ccccn3)cs2)sc1C	16%
O=C(OCc1ccc([N+](=O)[O-])cc1)c1cc(=O)c2ccccc2o1	22%
COc1nc(N/N=C/c2ccc(-c3ccccc3[N+](=O)[O-])o2)nc(N2CCOCC2)n1	?
CC(C)(C)S(=O)N1Cc2cc(=O)n(Cc3ccccc3)cc2[C@H]1CCO (some centres not stated)	5%
O=C1Nc2ccc(Br)cc2C1=C1CCCCC1	-8%
CCOc1ccc(C(=O)Nc2ccc3oc(-c4ccc(C)cc4C)nc3c2)cc1Br	-6%
CCCCc1ccc(NC(=O)CSC2=C(C#N)C(c3ccco3)C3=C(CCCC3=O)N2)cc1 (configuration not stated)	-5%
Cc1cc(C)cc(-n2c(C)cc(/C=N\NC(=O)COc3cccc4cccnc34)c2C)c1	13%
CCC1Nc2ncnc(N3CCN(c4ccccc4)CC3)c2N(Cc2ccccc2)C1=O (configuration not stated)	-7%
CCCCCCCn1c(C)nnc1-c1cnn(C)c1N	14%
Cc1ccc(/C=C2\SC(=S)N(C3CCS(=O)(=O)C3)C2=O)o1 (configuration not stated)	-12%
O=C(O)CC(NC(=O)C12CC3CC(CC(C3)C1)C2)c1ccc2c(c1)OCO2 (configuration not stated)	-5%
COc1ccccc1CNC(=O)CSC(=S)N1CCCC1	-29%
